GIV-Gai inh – inhibitors of GIV peptide binding to Galpha-i3, primary screen, biochemical, fluorescence polarization, FITC-GIV GBA peptide, rat Galphai3; AID 1224905, 2016; percent of control (FP), % (concentration not given with the values); Guanine nucleotide-binding protein G(i) subunit alpha-3 (Rattus norvegicus), P08753; 90 min; stronger effect = lower value; scaled: aluminum fluoride 0%, vehicle 100%; 0.42% of 210,000 active;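 active means replicate mean at 85% of control or lower, very high polarization wells dropped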;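 further: wells of about 15 µL received 100 nL stock; the first replicate is given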
Target sequence (P08753 whole entry, looked up): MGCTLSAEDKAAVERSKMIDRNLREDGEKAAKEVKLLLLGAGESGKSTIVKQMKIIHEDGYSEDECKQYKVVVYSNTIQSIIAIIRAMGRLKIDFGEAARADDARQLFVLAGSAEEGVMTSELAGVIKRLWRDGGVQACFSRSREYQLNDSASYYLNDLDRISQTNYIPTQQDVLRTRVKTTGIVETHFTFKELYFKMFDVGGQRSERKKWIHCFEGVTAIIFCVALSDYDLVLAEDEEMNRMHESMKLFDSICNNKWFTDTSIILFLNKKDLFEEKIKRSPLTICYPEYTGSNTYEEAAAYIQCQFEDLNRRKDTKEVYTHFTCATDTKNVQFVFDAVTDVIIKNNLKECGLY
HCMV UL50-53 inh – inhibitors of HCMV UL50-UL53 interaction, biochemical, HTRF. HCMV UL50-UL53 nuclear egress complex (human cytomegalovirus). inhibition, % (no concentration beside the values). 0.15% of 190,000 active. normalized percent inhibition;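 active means both replicates at 50% or more, plus weaker picks with an unusually low signal ratio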;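 further: stock transfer was 100 nL into about 20 µL; 0% = negative control wells and 100% = wells with untagged competitor protein; inactives centre near -12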
Sa growth 42C – S. aureus growth inhibition at 42 and 30 °C, primary screen, LtaS inhibitor project, RN4220, two temperatures; OD600, 20 h, 42 °C; stronger effect = lower value; relative growth, % (no concentration beside the values); 0.53% of 170,000 active; AID 720641, 2013;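 active means growth at 42 °C up to 50% and 20 or more points under that at 30 °C, or under 10% at both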;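 further: 300 nL library stock went into each well; scaled to the means of positive and negative controls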
Sa growth 42C second temp – recorded beside Sa growth 42C, whose call it bears; relative growth, %; measured here: growth at 30 °C;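 optical density after 20 h as mean of two plates; 100% = untreated growth and lower means inhibition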
* hit, by the source's call; / = no result given.

SMILES | GIV-Gai inh | HCMV UL50-53 inh | Sa growth 42C | Sa growth 42C second temp
COc1ccc(Cl)cc1NC(=O)CN(C(=O)c1ccccc1)C1CCCCC1 | / | -4 | 88 | 80
O=C(c1cc2c(=O)[nH]c3ccccc3c2s1)N1CCCC1 | 58* | / | 103 | 84
CCc1ccc(-c2nc(CN3CCCC(C(=O)NCc4ccc(C)cc4)C3)c(C)o2)cc1 (stereo not drawn) | 107 | -23 | 108 | 95
CCn1c(C(=O)N2CCCC(C(=O)NC3CCCC(C)C3C)C2)cc2sccc21 (stereo not drawn) | 108 | -4 | 100 | 92
COc1ccc(CCNc2nc(SCc3ccccc3F)nc3ccccc23)cc1OC | 109 | / | 101 | 92
COc1cccc(-c2nn3c(=O)cc(CN4CCN(C(=O)/C=C/c5ccccc5)CC4)nc3s2)c1 | 103 | / | 84 | 90
COc1ccc(-n2nnnc2C2CCN(S(=O)(=O)c3cc(Cl)ccc3C)CC2)cc1 | 105 | -17 | / | /
O=C(Nc1ccc(N2CCOCC2)cc1)c1oc2ccccc2c1CSc1ncn[nH]1 | / | -16 | 97 | 86
COC(=O)c1ccc(NC(=O)CCc2ccccc2)cc1 | / | -26 | 94 | 83
CN1CCN(Cc2c(O)ccc3cc(-c4nc5ccccc5n4C)c(=O)oc23)CC1 | 131 | -63 | 92 | 83
CCOC(=O)c1c(C)[nH]c(C)c1S(=O)(=O)N1CCC(C(=O)NCCc2sccc2C)CC1 | 103 | -7 | / | /
CCOC(=O)c1sc(N)c(C#N)c1CSC1=N/C(=C\c2ccco2)C(=O)N1c1ccc(OC(F)F)cc1 | / | 18 | 100 | 106
CCCn1nnc(NC(=O)Cc2ccc(Cl)cc2)n1 | 99 | -30 | 92 | 79
O=c1cc(CSc2ncn[nH]2)nc2sccn12 | 100 | -28 | 96 | 81
CCOC(=O)C1CCN(C(=O)/C=C/c2c(Cl)nc3sccn23)CC1 | / | -96 | 82 | 78
CCOc1ccccc1OCc1nn2c(COc3ccc(F)cc3)nnc2s1 | 100 | 4 | / | /
COC(=O)CN(C)C(=O)c1cc(OC)c(OC)c(OC)c1 | 105 | -34 | 99 | 95
COc1nsc(Br)c1C#N | / | -16 | 108 | 86
Cc1ccccc1COC(=O)C1CCN(S(=O)(=O)c2ccc3c(c2)OCCO3)CC1 | / | -17 | 109 | 90
Cc1ccc(-c2ncnn2-c2sc3c(c2C#N)CCCCC3)cc1 | 101 | -12 | 96 | 93

Shown in CSV form: 3 of the compounds above
SMILES,GIV-Gai inh,HCMV UL50-53 inh,Sa growth 42C,Sa growth 42C second temp
COc1ccc(Cl)cc1NC(=O)CN(C(=O)c1ccccc1)C1CCCCC1,/,-4,88,80
O=C(c1cc2c(=O)[nH]c3ccccc3c2s1)N1CCCC1,58*,/,103,84
CCc1ccc(-c2nc(CN3CCCC(C(=O)NCc4ccc(C)cc4)C3)c(C)o2)cc1 (stereo not drawn),107,-23,108,95

In the list so far, two have a furan ring, fused or not:
SMILES | GIV-Gai inh | HCMV UL50-53 inh | Sa growth 42C | Sa growth 42C second temp
O=C(Nc1ccc(N2CCOCC2)cc1)c1oc2ccccc2c1CSc1ncn[nH]1 | / | -16 | 97 | 86
CCOC(=O)c1sc(N)c(C#N)c1CSC1=N/C(=C\c2ccco2)C(=O)N1c1ccc(OC(F)F)cc1 | / | 18 | 100 | 106

Exported as tab-separated lines: 4 of the compounds above
molecule	GIV-Gai inh	HCMV UL50-53 inh	Sa growth 42C	Sa growth 42C second temp
CCOC(=O)c1sc(N)c(C#N)c1CSC1=N/C(=C\c2ccco2)C(=O)N1c1ccc(OC(F)F)cc1	/	18	100	106
O=C(c1cc2c(=O)[nH]c3ccccc3c2s1)N1CCCC1	58*	/	103	84
COC(=O)c1ccc(NC(=O)CCc2ccccc2)cc1	/	-26	94	83
O=c1cc(CSc2ncn[nH]2)nc2sccn12	100	-28	96	81

Additional structures:
SMILES | GIV-Gai inh | HCMV UL50-53 inh | Sa growth 42C | Sa growth 42C second temp
COc1ccc(CC(=O)Nc2ccc(-c3nc4ccccc4s3)cc2Cl)cc1OC | 99 | / | 116 | 93
Cc1ccc(C)c(-c2csc(N)c2C#N)c1 | / | -2 | 75 | 77
CCc1n[nH]c(=S)n1/N=C/C(C)=C\c1ccccc1 | 107 | -50 | 110 | 101
CCCS(=O)(=O)N1CCC(C(=O)NCc2ccc(F)cc2)CC1 | 104 | -31 | 95 | 86
Cc1ccc(N2C(=O)C(CC(=O)Nc3cccc(F)c3)N(CCc3ccccc3F)C2=O)cc1 (stereo not drawn) | 108 | 22 | 115 | 92
N#CCCSc1nnc2c(Cl)cc(Cl)cn12 | / | -78 | 80 | 89
CCN(CC(=O)NCc1ccc(F)cc1)Cc1cc(=O)n2ccsc2n1 | / | -6 | 88 | 92
Cc1ccc(CNC(=O)c2ccc(OCC(C)C)cc2)n1C | / | -21 | 72 | 61
NS(=O)(=O)c1ccc(NC(=O)Cn2cc(C(F)(F)F)ccc2=O)cc1 | / | -21 | 94 | 97
CC(C)(C)C(=O)COC(=O)c1cc(-c2ccccc2)nc2ccccc12 | / | -19 | 108 | 88
Cc1ccc2c(c1)N(CCCC(=O)Nc1cccc(C(F)(F)F)c1)C(=O)CO2 | 112 | -18 | 98 | 79
O=C(Nc1cccc2c1CCCC2)c1cnn(-c2ccc(Cl)cc2)c1 | 104 | -17 | / | /
N#Cc1ccccc1Cn1c(=O)n(-c2ccccc2)c(=O)c2ccc(C(=O)NCc3ccco3)cc21 | 103 | -23 | 77 | 86
CCOC(=O)c1cn(Cc2cccc(OC)c2)c2nc(C)ccc2c1=O | 107 | -20 | / | /
O=C(CN1C(=O)CCSc2ccc(S(=O)(=O)N3CCCC3)cc21)Nc1cccc(F)c1 | 97 | / | 111 | 91
CCOC(=O)c1c(C=O)oc2c(C)cc(OC(=O)c3ccc([N+](=O)[O-])cc3Cl)c(Br)c12 | 98 | -9 | / | /
Cn1c(=O)n(CCN2CCCCC2)c(=O)c2c1nc1n2CCCN1c1ccc(Cl)cc1 | 99 | -9 | / | /
CN(C)c1ncnc(Cl)c1N | 101 | -20 | 87 | 95
CCn1cc(C(=O)N2CCN(c3ccc(OC)cc3)CC2)c2cc(OC)c(OC)cc2c1=O | 106 | 2 | 108 | 99
O=C(c1ccc(F)cc1)N1N=C(c2c(-c3ccccc3)c3cc(Cl)ccc3[nH]c2=O)CC1c1ccco1 (stereo not drawn) | 104 | -9 | / | /
CC(C)c1csc2nc[nH]c(=O)c12 | 97 | / | 106 | 89
Cc1ccc(-c2cc(C(F)(F)F)n3ncc(C(=O)OC(C)C)c3n2)cc1 | 106 | / | 92 | 77
COc1ccc2oc3nc(=O)c4ccccc4c-3cc2c1 | 106 | 10 | 62 | 17
Cn1c(CN(c2ccc(F)cc2)S(C)(=O)=O)nnc1SCC(=O)c1cn(C)c2ccccc12 | 106 | -28 | / | /
COCCNC(=O)c1ccc2c(c1)N(Cc1ccc(C(F)(F)F)cc1)C(=O)c1ccccc1S2 | 102 | -8 | 96 | 63
O=C(c1cc2ccccc2cc1O)N1CCCCCC1 | 109 | -31 | 114 | 89
O=C(O)CNC(=S)N(Cc1ccco1)Cc1ccccc1Cl | 104 | -32 | 88 | 88
Cc1ccc(Cn2c(CO)cnc2SCc2cccc(F)c2)cc1 | 101 | / | 118 | 93
Cc1ccc(F)c(NC(=O)Nc2ccc3snnc3c2)c1 | 104 | -26 | 94 | 84
c1ccc(CCNC2=NCCS2)cc1 | / | -14 | 116 | 87
Cn1c(C(=O)NC2CCCC2)cc2c(=O)n(C)c3ccccc3c21 | 101 | / | 112 | 97
CCc1ccc2[nH]c(=O)c(CN(Cc3ccco3)C(=S)NCC(C)C)cc2c1 | 103 | -19 | 84 | 75
Cc1ccc(CNC(=O)c2c[nH]n3c(=O)cc(CSc4ccc(Cl)cc4)nc23)cc1 | 101 | / | 95 | 78
Cc1ccc(S(=O)(=O)NC(C)c2nc(-c3ccc(S(=O)(=O)N4CCCCC4)cc3)no2)cc1 (stereo not drawn) | 112 | -20 | / | /
CCCCn1c(SCC(=O)Nc2ccccc2OC)nc2ccsc2c1=O | 103 | 2 | 98 | 82
COc1ccc(-c2nc3sc(C)nn3c2NC2CCCCC2)cc1 | 101 | -16 | / | /
Fc1ccc(N2CCN(c3ncnc4c3nc3n4CCCCC3)CC2)cc1 | 101 | / | 80 | 87
CC1CCCCN1C(=O)CSc1nnc(CNc2ccc(Cl)cc2)o1 (stereo not drawn) | 101 | -8 | 95 | 70
CC1CCCCN1CCCNC(=O)c1cc(Sc2ccc(Cl)cc2)nc2ccccc12 (stereo not drawn) | 108 | / | 81 | 83
CCOc1ccc(C(=O)Nc2cccc(-c3ccc4nncn4n3)c2)cc1 | 108 | -4 | 103 | 98
CC(C)(C)C1(C)OC(=O)C(=Cc2ccc3c(c2)OCO3)C(=O)O1 (stereo not drawn) | 97 | 8 | 95 | 84
COC(=O)c1ccc2c(c1)N(CC(=O)Nc1ccc(OC)c(Cl)c1)C(=O)c1ccccc1S2 | 108 | / | 95 | 88
CCOc1ccc(-n2c(-c3ccco3)nc3c(cnn3-c3ccc(Cl)cc3)c2=O)cc1 | 100 | 1 | 95 | 98
O=C(Nc1cccc2c1C(=O)c1ccccc1C2=O)c1ccc(S(=O)(=O)N2CCOCC2)cc1 | 93 | -8 | / | /
COc1ccc(C2C=C(c3ccccc3)Nc3nc(NC(=O)/C=C/c4ccc(F)cc4)nn32)cc1 (stereo not drawn) | 105 | -19 | 108 | 69
O=c1[nH]c(=O)n(-c2ccc(Br)cc2)c(O)c1/C=C1/C=Nc2ccccc21 | 105 | -12 | / | /
O=C(O)/C=C/C(=O)Nc1ccnn1-c1ccccc1 | 105 | -13 | 105 | 82
CC(C(=O)N1CCCC1)N1c2cccc3cccc(c23)S1(=O)=O (stereo not drawn) | 102 | / | 101 | 96
COc1ccccc1N1CCN(CCC(=O)Nc2cccc(F)c2)CC1 | 104 | -14 | 108 | 76
Cc1c(C#N)c(Sc2ccccc2N)nc2ccccc12 | 103 | -10 | 76 | 50
O=C(CSc1nc2c([nH]c3ccccc32)c(=O)n1-c1ccc(Cl)cc1)NCc1ccccc1 | 106 | / | 130 | 79
COc1ccc(NC(=O)C2CCC(CNS(=O)(=O)c3ccc(Br)s3)CC2)c(OC)c1 (stereo not drawn) | 100 | 10 | 102 | 92
OCCCN=Cc1ccc(Cl)cc1Cl | 108 | 6 | 95 | 100
CCN(CC)C(=O)c1sc2ncn(CC(=O)Nc3cccc(C(F)(F)F)c3)c(=O)c2c1C | 100 | / | 104 | 93
COc1ccc(-c2[nH]nc3c2C(c2c(F)cccc2Cl)C(C#N)=C(N)O3)cc1OC (stereo not drawn) | 105 | -10 | / | /
CCOCN(C(=O)Cn1cnc2cc(C)c(C)cc21)c1c(C)cccc1CC | 101 | -15 | 104 | 78
COC1OC2COC(c3ccccc3)OC2CC1O (stereo not drawn) | / | -1 | 92 | 91
CCCCOc1cccc(C(=O)N2CCN(CCc3ccncc3)CC2)c1 | 104 | 15 | 103 | 88
Cc1ccc2c(Sc3ccc(Cl)cc3)c(C(=O)NCCN(C)C)[nH]c2c1 | 90 | -11 | / | /
CC(=O)NC(=O)/C(C#N)=C/N1CCN(Cc2ccccc2)CC1 | 105 | 7 | 98 | 101

(list continues)
SMILES | GIV-Gai inh | HCMV UL50-53 inh | Sa growth 42C | Sa growth 42C second temp
COc1ccc(Nc2ncnc3c2nc2n3CCCC2)cc1Cl | 104 | / | 91 | 91
CCCN1C(=O)CC(C(=O)OC)=C1C | 102 | -4 | 98 | 90
COc1ccccc1NC(=O)c1ccc(CN2C(=O)C(C)=C(c3ccc(C)c(C)c3)S2(=O)=O)cc1 | 106 | / | 107 | 94
COc1cc(-c2nn3c(-c4ccc(C(C)(C)C)cc4)nnc3s2)cc(OC)c1OC | 96 | / | 103 | 79
O=C(Nc1nc2c(Br)cc(Br)cc2c(=O)s1)c1cccs1 | 104 | -8 | 133 | 74
CCOC(=O)C1=C(CN(CC)Cc2ccccc2)NC(=O)NC1c1ccc(OC)cc1 (stereo not drawn) | 107 | / | 108 | 87
CCc1ccc(Oc2coc3cc(OC(=O)C(C)C)ccc3c2=O)cc1 | 113 | / | 85 | 86
CCOc1ccccc1CNC(=O)C1CCN(C(=O)c2sccc2-n2cccc2)CC1 | 105 | -30 | / | /
O=C(NCCc1nc2ccccc2[nH]1)C1COc2ccccc2O1 (stereo not drawn) | / | -8 | 108 | 85
COc1ccccc1-c1[nH]ncc1CNC1CCCCC1 | 104 | / | 89 | 88
CCn1cc(C(=O)N(C)c2ccc(C(C)C)cc2)c2cc(OC)c(OC)cc2c1=O | 107 | 5 | 88 | 86
COc1ccc(C)cc1NC(=O)CN(C)Cc1nc2ccccc2c(=O)[nH]1 | / | -8 | 87 | 96
CC(C)OCCCNC(=O)c1cn(C)c2ccc(S(=O)(=O)N(C)C3CCCCC3)cc2c1=O | 101 | -31 | 102 | 88
CCOC(=O)c1oc2cc(O)c(CC)cc2c(=O)c1-c1cscn1 | / | 0 | 99 | 101
CCCCOCC1CN(c2ccccc2)C(=O)CS1 (stereo not drawn) | 108 | 2 | 100 | 99
